sEH inhibitor: inhibitors of human soluble epoxide hydrolase; recombinant human sEH enzymatic activity assay; inhibition, % at 2 µM; 0.34% of 91,000 active; in the data active = inhibition above about 80%; note: values of inactives mirror those of a sister screen read the other way; many of its hits are not listed in these tables
Target sequence (P34913 whole entry, looked up): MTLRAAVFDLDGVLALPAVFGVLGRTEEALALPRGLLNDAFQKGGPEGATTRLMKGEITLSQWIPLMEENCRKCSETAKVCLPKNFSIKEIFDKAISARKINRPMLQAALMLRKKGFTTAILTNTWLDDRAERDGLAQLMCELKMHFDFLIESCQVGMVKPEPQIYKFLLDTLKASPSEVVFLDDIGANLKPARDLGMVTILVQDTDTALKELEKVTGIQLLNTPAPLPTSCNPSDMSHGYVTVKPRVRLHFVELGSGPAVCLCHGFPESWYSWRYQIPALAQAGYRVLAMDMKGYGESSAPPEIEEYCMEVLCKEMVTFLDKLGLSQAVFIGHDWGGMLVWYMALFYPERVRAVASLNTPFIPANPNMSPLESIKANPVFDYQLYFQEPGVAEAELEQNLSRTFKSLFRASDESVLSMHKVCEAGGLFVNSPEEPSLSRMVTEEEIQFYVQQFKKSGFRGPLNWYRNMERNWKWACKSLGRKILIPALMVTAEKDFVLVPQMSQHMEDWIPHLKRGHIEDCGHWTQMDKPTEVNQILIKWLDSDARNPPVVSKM
S1P2 antag: blocks the human S1P2 receptor | O95136 | cell-based S1P2 antagonist assay, inhibition at 5 uM | inhibition, % at 5 µM | 0.21% of 97,000 active; in the data active = inhibition above about 45%;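 note: CRE beta-lactamase reporter cells expressing human S1P2 stimulated with S1P; 0% = agonist at EC80 alone and 100% = agonist plus reference antagonist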
Target sequence (O95136 whole entry, looked up): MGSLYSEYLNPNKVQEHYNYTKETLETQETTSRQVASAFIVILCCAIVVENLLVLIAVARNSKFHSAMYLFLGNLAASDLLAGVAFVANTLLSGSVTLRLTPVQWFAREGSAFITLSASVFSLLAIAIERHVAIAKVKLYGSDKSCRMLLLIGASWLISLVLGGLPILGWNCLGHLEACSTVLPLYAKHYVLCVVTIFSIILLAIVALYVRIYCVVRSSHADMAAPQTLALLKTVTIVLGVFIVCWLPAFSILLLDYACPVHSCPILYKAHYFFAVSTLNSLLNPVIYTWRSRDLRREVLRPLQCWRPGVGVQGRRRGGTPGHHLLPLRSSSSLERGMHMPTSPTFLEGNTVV
PostGolgi ctrl: growth of the yeast control strain, post-Golgi counter-screen; 5% of 98,000 active; efflux-deficient yeast background strain, growth absorbance A615, 16 h; inhibition, % at 10 µM
sEH activator: increases human soluble epoxide hydrolase activity; 0.04% of 91,000 active; purified human sEH enzymatic activity, activator screen; activation, % at 2 µM; P34913; AID 717; in the data active = activation above about 37%; note: values of inactives mirror those of a sister screen read the other way
hDAT+cocaine: modulates human dopamine transporter uptake under cocaine | LLC-PK1 hDAT cells, [14C]-dopamine uptake with cocaine IC80; actives deviate in either direction | B-score at 10 µM | 1.3% of 110,000 active;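 active = Z score or B-score, a plate-position-corrected score, falls beyond the plate's 99.7% confidence bounds, in either direction; inactive = both scores lie inside the 99.7% bounds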;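 note: scored against the spread of the other compound wells on the same plate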
PostGolgi yeast: growth inhibition of a yeast mutant, post-Golgi transport screen; inhibition, % at 10 µM; post-Golgi transport phenotypic cell assay; 0.9% of 98,000 active; AID 739;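 note: yeast cells grown in 1536-well plates; yeast grown about 18 h at 30C before absorbance read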
S1P2 ag: S1P2 (human) receptor agonism. O95136. S1P2-expressing cell line, agonist reporter read-out. activation, % at 4.5 µM. 0.46% of 97,000 active; in the data active = activation above about 16%;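 note: 0% = vehicle low control and 100% = maximal reference agonist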
* hit, by the source's call; · = not tested or not shown. Cut-off read from the data, not from the text of the source, unless noted: active = inhibition above about 30%; inactive = the rest. The list is partial, so the mix of outcomes need not match the whole.

SMILES	sEH inhibitor	S1P2 antag	PostGolgi ctrl	sEH activator	hDAT+cocaine	PostGolgi yeast	S1P2 ag
CCn1cc(C(=O)NCC(=O)OC)c2cc(OC)c(OC)cc2c1=O	-8	-16	3	10	0.86	16	5
O=C(c1ccc(Cl)cc1)c1cnc(-c2ccccc2)s1	-11	20	-4	8	-0.27	7	-7
O=C1c2ccccc2CCCC12N=NCC2c1cccc2ccccc12 (stereo not given)	4	-16	33*	-2	·	6	-4
N#CC1=C(N)OC2=C(C(=O)CC(c3ccco3)C2)C1c1ccc(OCc2c(F)cccc2Cl)cc1 (stereo not given)	0	8	9	4	1.7	7	-5
COc1ccc(C(=O)N2CC3(CC(c4ccc(Cl)cc4)=NO3)C[C@H]2C(=O)NCC(N)=O)cc1 (stereo not given in full)	-1	2	1	2	0.92	3	-6
O=C(Oc1c(Br)cc(C(=S)N2CCOCC2)cc1Br)c1ccc(Cl)cc1	2	9	25	0	0.89	3	-3
CCCCNC(=O)CC(=O)Nc1ccccc1C(=O)O	11	13	2	-11	-0.9	-1	-4
Cc1cc(C(=O)CSc2nnc(-c3ccc(Cl)cc3)n2C)c(C)n1CC1CCCO1 (stereo not given)	-3	10	6	5	-0.21	4	-2
N#Cc1nc(-c2ccc(OCc3ccccc3Cl)cc2)oc1NCCCn1ccnc1	-6	-3	24	6	·	-4	-2
N#Cc1nc(-c2ccc(OCc3ccc(Cl)cc3)cc2)oc1NCCCn1ccnc1	-2	14	21	2	-0.39	-2	-4
Cc1ccc(CCNC(=O)CCNS(=O)(=O)c2ccc3c(c2)c(=O)n(C)c(=O)n3C)cc1	-19	13	15	18	-0.15	15	-5
Clc1ccc(OCc2cnc(Cl)s2)cc1	4	14	30	-3	·	-5	-3
COC(=O)C1(S(=O)(=O)c2ccc(C)cc2)CCOCC1	7	19	7	-9	0.5	2	-2
Cc1cc(-c2ccc(/C=N/n3cnnc3)o2)c([N+](=O)[O-])cc1C	0	2	39*	0	·	60*	-5
COc1ccc(Cc2nc3ccc(S(=O)(=O)N4CCOCC4)cc3[nH]2)cc1OC	-8	-5	3	7	1	-1	-10
C=CCn1c(-c2ccc(Cl)cc2)ccc(C#N)c1=O	-1	-26	8	3	-0.18	-4	-1
COc1ccc(C(=O)OC2CCN(c3ncc(C(F)(F)F)cc3Cl)CC2)cc1	15	-1	5	-18	0.039	0	-6
CCc1ccc(Cn2nnc(C(=O)NCc3ccccc3OC)c2N)cc1	·	10	-6	·	-0.72	5	1
Cc1ccc2c(c1)-c1c(cnn1CC(=O)O)CO2	12	2	7	-13	0.6	-2	-7
Cn1c(SCC(=O)NCc2ccc3c(c2)OCO3)nnc1-c1cc2ccccc2cc1O	7	24	4	-6	1.1	-6	-5
COc1c(N2CCN(C(=S)Nc3ccccc3)C(C)C2)c(F)cc2c(=O)c(C(=O)O)cn(C3CC3)c12 (stereo not given)	-8	3	9	11	1.1	-4	0
CCC(C)NC(=O)CCC(=O)Nc1ccc2nc(N3CCOCC3)cc(C)c2c1 (stereo not given)	·	4	5	·	0.33	4	-3
O=C(NCCc1ccccc1)c1noc2c1CCc1ccccc1-2	31	1	2	-31	-0.033	-2	-5
Cc1ccccc1NC(=O)Cc1c(O)c2ccccc2[nH]c1=O	-12	-22	3	8	-0.27	9	-13
CCOC(=O)C=C1CCN(c2ncc(C(F)(F)F)cc2Cl)CC1	8	16	16	-9	-0.62	15	-6
Next section.
SMILES	sEH inhibitor	S1P2 antag	PostGolgi ctrl	sEH activator	hDAT+cocaine	PostGolgi yeast	S1P2 ag
CN(C)C(=O)COn1c(SCC(=O)N(C)C)nc2ccccc2c1=O	1	18	12	-3	1.3	3	-6
CCOC(=O)C1=C(NC(=S)NC(=O)c2ccccc2)c2ccccc2CC1(C)C	7	10	24	-4	-0.61	12	-4
O=C1CC(c2ccc(F)cc2)Cc2nc(NCC3CCCO3)ncc21 (stereo not given)	-5	3	3	5	0.43	6	-9
COc1ccc(OCC(=O)N/N=C/c2ccc(O[C@@H]3O[C@H](CO)[C@@H](O)[C@H](O)[C@H]3O)cc2)cc1	-2	10	15	5	-1.1	-11	-4
CCNC(=O)NC1(C(=O)Nc2ccc3c(c2)OCCO3)CCCCC1	3	22	-2	-2	-0.089	28	-4
CCCOc1ccc(-c2nc(OC)c3ccccc3n2)cc1	4	12	-3	-3	0.8	-3	-4
Cc1ccc2c(c1)SC1=NC(c3ccccc3)(C(F)(F)F)NC(=O)N12 (stereo not given)	4	2	17	-1	·	20	-6
CCOC(=O)Cn1c(=O)oc2cc(S(=O)(=O)NCCc3ccc(OCC)c(OCC)c3)ccc21	-6	-7	7	4	1	-5	-6
CSc1nsc(SC)c1NC(=O)OCC1CCCO1 (stereo not given)	9	9	11	-11	-0.18	-6	-7
Cc1ccc(-c2nc3ccccc3s2)cc1NC(=S)NC(=O)/C=C/c1ccco1	6	4	5	-5	0.92	-4	-4
COc1ccc(-n2nc(C(=O)NCC(=O)Nc3ccccn3)c3ccccc3c2=O)cc1Cl	-17	-3	3	14	·	-5	-6
Cc1cccc(Nc2ccccc2C(=O)OCC(=O)N2CCOCC2)c1C	-8	-2	35*	8	0.025	3	-1
CCOC(=O)c1c(C)n(C)c2ccc(OC)c(NC(=O)CN3CCN(Cc4ccccc4)CC3)c12	-1	4	10	0	·	-1	-1
COc1ccc(C(=O)Nc2cc(OCc3ccccc3)c(Cl)cc2Cl)cc1	11	-2	3	-11	0.15	3	-7
CS(=O)(=O)c1nc2ccccc2n1Cc1ccccc1	·	1	6	·	0.15	-9	0
COc1ccc(C(=O)NCC2OCCc3ccccc32)cc1 (stereo not given)	3	19	14	-1	2.4	1	-3
CCOC(=O)N1CCN(C(=O)c2cccn3c(=O)c4cc(Cl)ccc4nc23)CC1	-1	-6	7	-2	0.37	4	-2
O=C(O)/C=C/C(=O)Nc1ccccc1-c1ccccc1	-5	10	-5	3	0.59	4	-9
Cc1oc2c(O)c(O)ccc2c(=O)c1-c1cnn(-c2ccccc2)c1	5	14	-4	-5	0.47	4	-4
Cc1cc(OCC(F)(F)C(F)(F)C(F)(F)C(F)F)nc(N)n1	-12	-2	0	11	0.54	6	-7
Cc1ccc(CNc2nc(N)c([N+](=O)[O-])c(Nc3ccc(F)cc3)n2)cc1	-12	-1	3	11	-11*	-1	-2
Cc1ccc(S(=O)(=O)CCC(=O)Nc2nc3c(s2)CCCC3)cc1	10	7	22	-8	0.74	13	-9
Cc1ccc(C)n1NC(=O)c1ccccc1	2	-2	-5	-2	0.57	-7	-6
Cc1cc(C(F)(F)F)nc(SCC(=O)c2cccc([N+](=O)[O-])c2)n1	0	11	13	1	0.12	-4	-4
N/C(=N\c1nc2c(c(=O)[nH]1)CCC2)Nc1cccc2ccccc12	-6	-9	10	7	-0.61	-1	-3

An excerpt of these results, field by field:
CCCOc1ccc(-c2nc(OC)c3ccccc3n2)cc1
  sEH inhibitor = 4
  S1P2 antag = 12
  PostGolgi ctrl = -3
  sEH activator = -3
  hDAT+cocaine = 0.8
  PostGolgi yeast = -3
  S1P2 ag = -4

Cc1ccc2c(c1)SC1=NC(c3ccccc3)(C(F)(F)F)NC(=O)N12 (stereo not given)
  sEH inhibitor = 4
  S1P2 antag = 2
  PostGolgi ctrl = 17
  sEH activator = -1
  hDAT+cocaine = ·
  PostGolgi yeast = 20
  S1P2 ag = -6

CCOC(=O)Cn1c(=O)oc2cc(S(=O)(=O)NCCc3ccc(OCC)c(OCC)c3)ccc21
  sEH inhibitor = -6
  S1P2 antag = -7
  PostGolgi ctrl = 7
  sEH activator = 4
  hDAT+cocaine = 1
  PostGolgi yeast = -5
  S1P2 ag = -6

CSc1nsc(SC)c1NC(=O)OCC1CCCO1 (stereo not given)
  sEH inhibitor = 9
  S1P2 antag = 9
  PostGolgi ctrl = 11
  sEH activator = -11
  hDAT+cocaine = -0.18
  PostGolgi yeast = -6
  S1P2 ag = -7

Continuation:
SMILES	sEH inhibitor	S1P2 antag	PostGolgi ctrl	sEH activator	hDAT+cocaine	PostGolgi yeast	S1P2 ag
CC(C)NC(=O)c1noc2cc([N+](=O)[O-])ccc12	9	6	-13	-6	0.094	-3	-7
Cc1ccccc1OCCCC(=O)NCc1ccco1	6	-5	1	-7	-0.025	0	0
COc1ccc2c(c1[N+](=O)[O-])CCC/C2=N/OC(=O)c1cccc2ccccc12	8	-7	5	-8	0.096	1	-6
O=C(O)C1CCN(S(=O)(=O)c2cccnc2)CC1	-5	-13	12	4	-0.25	7	-8
COc1cc(Nc2nc(-c3ccccc3)c3cc(C)ccc3n2)cc(OC)c1OC	·	-2	35*	·	·	-1	4
CCOc1ccc2nc(SCC)[nH]c2c1	1	2	-4	-2	-0.37	-1	-5
CSc1nnc(-c2ccc(Cl)cc2Cl)o1	9	15	1	-7	-0.26	7	-2
COc1cc(C2NC(=O)NC(c3ccccc3)=C2C(C)=O)ccc1OCC#N (stereo not given)	-4	-16	4	5	0.83	-4	-3
Cc1cccn2c(/C=N/OCc3ccc(F)cc3)c(-c3ccc(Cl)cc3)nc12	-15	10	6	14	-0.58	4	-5
CCn1c(N)c(C(=O)NCc2cccnc2)sc1=S	2	11	5	-2	-0.9	0	0
CCOC(=O)N1CCN(C(=O)Cc2ccsc2)CC1	16	-17	9	-13	·	-7	-4
O=C(/C=C/c1ccccc1)N1CCN(Cc2nc3ccccc3c(=O)[nH]2)CC1	-8	10	7	8	1.1	-2	-8
COc1ccc(S(=O)(=O)N2CCN(CC(=O)Nc3cc(C(F)(F)F)ccc3Cl)CC2)cc1	21	-3	21	-19	-0.05	9	-3
COC(=O)c1ccccc1Oc1c(F)c(F)nc(N2CCOCC2)c1F	-11	10	10	11	0.24	1	-3
COc1ccccc1CNC(=O)Cn1nnc(-c2ccncc2)n1	15	17	7	-16	0.4	-2	-10
CCOC(=O)c1c(-c2ccc(C)o2)csc1NC(=S)NC(=O)N(C)C	11	1	12	-9	0.33	10	-8
COC(=O)c1ccc(-n2cncn2)c(F)c1	-2	10	3	3	-1.4	11	-7
CC(=O)N1CCN(Cc2nc3cc(NC(=O)c4ccccc4)ccc3n2C)CC1	8	-14	5	-6	0.91	-10	-2
COC(=O)C(NC(=O)c1ccc(F)cc1)(Nc1ncc(S(=O)(=O)c2ccc([N+](=O)[O-])cc2)s1)C(F)(F)F (stereo not given)	1	16	1	-1	-0.54	4	-8
COc1ccc(C(=S)N(C)C)cc1OC	-20	9	-1	20	-0.015	-1	0
O=c1c2ccccc2nc2n1C(CSc1ccc(F)cc1)CN2 (stereo not given)	-3	9	8	0	-0.59	-4	-5
O=C(Nc1ccc(-n2nncc2-c2ccco2)cc1)c1ccc(F)cc1	70	10	16	-70	-0.1	-1	-7
CCCN1CNC(=S)N(c2cccc(C)c2C)C1	4	17	5	0	-0.21	-2	-6
Cc1ccc(NC(=O)CN(Cc2ccccc2)S(C)(=O)=O)cc1C	10	-2	6	-9	-0.1	-1	-3
Cc1cccc(NC(=S)NCc2ccccn2)c1	-2	-7	-3	0	0.0033	-2	-1
Additional structures:
SMILES	sEH inhibitor	S1P2 antag	PostGolgi ctrl	sEH activator	hDAT+cocaine	PostGolgi yeast	S1P2 ag
CCN(CC)C(=O)COc1ccc(S(=O)(=O)N2CCOCC2)cc1	-3	-8	7	4	-0.0078	-2	-6
COC(=O)C(C(=O)OC)C(C[N+](=O)[O-])c1ccc(OC)c(OC)c1 (stereo not given)	-4	12	33*	6	0.09	-4	-9
COc1ccc(CN2C(=O)CN(C3CCCCCC3)C(=O)C2c2ccc(OC)c(OC)c2)cc1 (stereo not given)	-4	9	0	4	-0.33	0	0
CCn1c(COc2ccc(OC)cc2)nc2ccccc21	11	6	4	-9	0.48	-3	-4
CCOc1ccccc1NC(=O)Nc1c(C)n(-c2ccccc2)c(=O)n1C	17	8	0	-18	-0.99	1	-4
Cc1oc2ccc(NS(=O)(=O)c3ccc(C(C)(C)C)cc3)cc2c1C(=O)Nc1ccccc1	7	23	20	-3	1.3	1	-5
c1ccc(-c2nc(NCCCn3ccnc3)c3oc4ccccc4c3n2)cc1	4	20	27	-2	3.5*	4	-6
COc1cccc(C2NC(c3cccc(OC)c3O)C(C)C(=O)C2C)c1O (stereo not given)	-7	-18	-2	8	-0.13	19	-5
CN(C)c1ccc(/C=c2\sc3nc(-c4ccccc4)nn3c2=O)cc1	2	10	2	-1	·	1	-9
O=C1c2ccccc2C(=O)N1Nc1ccccc1	-24	1	2	23	·	-3	-8
Brc1ccc(N=C/C=C/C=C/Nc2ccc(Br)cc2)cc1	11	-1	8	-8	-1.3	3	-3
CSc1ccc(CCNC(=O)CSc2ccsc2[N+](=O)[O-])cc1	10	-8	28	-10	-0.81	-24	-4
CCOC(=O)N1CCC(n2c(SCC(=O)c3ccccc3)nc3ccsc3c2=O)CC1	-3	9	0	4	-0.18	-4	-6
C=CCn1cnc2scc(-c3ccccc3)c2c1=O	3	-26	17	-3	0.015	18	-3
CN(C)S(=O)(=O)c1ccc(NC(=O)N2CCN(c3ccccc3)CC2)cc1	66	20	2	-66	·	-2	-7
Cc1ccc(/C=C2/NC(=O)N(Cc3ccccc3)C2=O)s1	16	4	13	-13	1.3	0	-4

Assay outcomes: PubChem BioAssay, several laboratories
